Source: PubChem (National Center for Advancing Translational Sciences (NCATS))
miR-21 FLuc: miR-21 reporter, rising signal. HeLa miR-21 FLuc reporter, luciferase, 48 h. Potency, µM (doses to about 38.3 µM), inactives show top-dose reporter change, positive = more light. 340,000 tested, under 10 active; active = well fitted rising curve with a large enough effect; inconclusive = small, poorly fitted or top-dose-only effect; inactive = no such curve, though single readings can be large or run the other way;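 further: % of control where 0% means no effect; miR-21 action dims this reporter so a rising signal means less miR-21 action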
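HeLa miR-21-FLuc reporter line, endogenous miR-21; 2000 cells/well in DMEM/10% FBS; compound titration up to ~40uM final, 48 h, 37 degree Celsius; luciferase detection reagent, 15 min lysis, CCD luminescence.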
* = called active by the depositor; ? = inconclusive.

miR-21 FLuc,Compound
4%,CC(C)CC(=O)Nc1nnc2n1CCS2
-10%,c1ccc(N2CCN(Cc3cccn3-c3nnc(N4CCN(C5CCCCC5)CC4)s3)CC2)cc1
?,CSc1nc(Nc2ccc(F)cc2)cc(-c2ccccc2)n1
-13%,Cc1ccc(NC(=O)C2CCCN2S(=O)(=O)c2cccc3cccnc23)cc1 (stereo not drawn)
3%,COc1ccc(OC)c(NC(=O)c2cc(=O)c3c(C)cc(C)cc3o2)c1
23%,Cc1ccc(Cn2c(SCc3ccc(C(=O)NC4CCCCC4)cc3)nc3ccncc32)cc1
-2%,Cc1ccc(NC(=O)CCCn2nc(C)c3c(C)n(-c4ccccc4)nc3c2=O)cc1Cl
-72%,COCc1cc(C)nc2sc(C(=O)Nc3ccccc3O)c(N)c12
27%,CC(C)COc1ccc(C(=O)Nc2nnc(S(=O)(=O)N(C)Cc3ccco3)s2)cc1
-3%,CCCCOC(=O)c1ccc(Nc2nc3ccccc3c3nnc(C)n23)cc1
2%,CCOc1ccc(NC(=O)N(C(C)C)C2CCN(C(C)=O)CC2)cc1
8%,CCc1nnc2c(Nc3cccc(F)c3)nc3ccc(C(=O)c4ccccc4)cc3n12
7%,CCOc1ccc(CCNC(=O)CCCc2nnc3n(CC)c(=O)c4sccc4n23)cc1
23%,Cc1ccc(Cl)cc1N1CCN(C(=O)c2cnn(C)c2C2CCN(C(=O)OC(C)(C)C)CC2)CC1
26%,Cc1ccc(NS(=O)(=O)c2ccc(-c3cc(C)no3)cc2)c(C)c1

Next compounds follow.
miR-21 FLuc,Compound
1%,O=S(=O)(c1ccc(F)cc1)N(Cc1nc(-c2ccc(Cl)cc2)no1)C1CCCCC1
2%,COc1ccc(NC(=O)Cn2nc3c(cc2=O)CCCC3)cc1Cl
-20%,COc1ccc(CCNC(=O)c2ccc(Cn3c(=O)c4cccn4c4cccnc43)cc2)cc1OC
2%,CCOC(=O)c1c(NC(=O)Cc2coc3cc(C)cc(C)c23)sc2c1CCC2
7%,CC(=O)c1ccc(NC(=O)c2cc(C)nc3c2c(C)nn3-c2ccc(C)cc2)cc1
1%,CC(C)(C)C(=O)Nc1cc(-c2cccc(Br)c2)nn1-c1ccccc1
-4%,COc1cccc(CNC(=O)c2cccc(N3CCCS3(=O)=O)c2)c1
17%,O=C(CN(c1cc(C(F)(F)F)ccc1Cl)S(=O)(=O)c1ccccc1)NCCc1ccccc1
0%,O=C(Nc1cccc(C(=O)OCc2cc(=O)n3ccsc3n2)c1)c1ccc(F)cc1
-2%,CCOC(=O)c1c(S(=O)(=O)N2CCCC(C(=O)Nc3cccc(CC)c3)C2)c(C)n(CC)c1C (stereo not drawn)
-1%,CCc1ccc(NC(=O)c2sc(-n3nc(C)c(Cc4ccc(OC)cc4)c3C)nc2C)cc1
-43%,CCOc1ccc(-c2cc3c(=O)n(CC(=O)NCc4ccccc4)ccn3n2)cc1
3%,COc1cccc(CNC(=O)c2cc3n(n2)CCCN(Cc2ccc(C)cc2)C3=O)c1OC
4%,COc1ccc(CC(=O)NCCc2csc(-c3ccc(C(F)(F)F)cc3)n2)cc1
-8%,CCOc1ccc(-c2cccc(NS(=O)(=O)c3ccc(C)s3)c2)nn1

(listing goes on)
miR-21 FLuc,Compound
-1%,Cn1c(=O)c2sccc2n2c(CCCC(=O)Nc3ccc(Cl)cc3)nnc12
-6%,CC(C)c1ccc(NC(=O)c2cc(S(=O)(=O)N3CCCCC3)cn2C)cc1
-3%,CCN1C(=O)C(Cc2nc3ccccc3c(=O)n2-c2cccc(C)c2)c2ccccc21 (stereo not drawn)
19%,CCOc1cccc(CC(=O)N2CCc3c([nH]c4ccccc34)C2c2ccc(F)cc2)c1OCC (stereo not drawn)
3%,CCc1ccc(-n2c(=O)c3c(C)c(C(=O)N(C)C)sc3n(Cc3ccccc3C#N)c2=O)cc1
-39%,CNC(=O)c1c(NC(=O)c2cc(=O)c3ccccc3o2)sc2c1CCC2
1%,Cc1ccc(C(c2sc3nc(-c4ccco4)nn3c2O)N2CCOCC2)cc1 (stereo not drawn)
20%,COc1ccc(C)cc1NS(=O)(=O)c1ccc2c3c(cccc13)C(=O)N2
-1%,COc1cccc(C2CC(=O)Nc3c2c(=O)nc2c(C)cccn32)c1 (stereo not drawn)
-3%,Cc1ccc2onc(CNC(=O)N3CCN(c4cccc(C)c4C)CC3)c2c1
10%,CCOc1ccc(-c2cnc(NCc3cccc(Cl)c3)n2C)cc1
2%,CCOC(=O)c1c(C)oc2ncnc(Nc3ccc(OC)cc3OC)c12
2%,COC(=O)c1cc2occc2n1CC(=O)Nc1ccc(C(C)C)cc1
-3%,CC(=O)c1ccc(N2C(=O)Nc3ccccc3S2(=O)=O)cc1
-7%,CCCN(CCC)CCNC(=O)c1sc2nc3n(c(=O)c2c1C)CCCCC3

Next section
miR-21 FLuc,Compound
0%,CCOC(=O)CNC(=O)c1ccc(-c2nn(C)c(=O)c3ccccc23)cc1
6%,Cc1ccc2cccc(NC(=O)C(C)Oc3ccc(C)c(C)c3)c2n1 (stereo not drawn)
8%,COc1ccc(CCC(=O)NCCc2csc(-c3ccc(Cl)cc3)n2)cc1
21%,Cc1cc(C)cc(-n2c(SCC(N)=O)nc3c([nH]c4ccccc43)c2=O)c1
1%,COc1cccc(C2C(=O)N(C3CCCCC3)CC(=O)N2Cc2ccc(Cl)cc2)c1 (stereo not drawn)
-6%,COc1ccc(-n2ccn(Cc3ccc(C)cc3)c(=O)c2=O)cc1OC
-2%,COc1ccc(CCC(=O)NC2CC(=O)N(c3cccc(F)c3)C2)cc1 (stereo not drawn)
?,CC1CCN(S(=O)(=O)c2ccc3c(c2)oc(=O)n3CC(=O)NCc2ccc(F)cc2)CC1
-5%,COc1ccc(NC(=O)C(NC(=O)C2CCC(C)CC2)C(C)C)cc1 (stereo not drawn)
1%,Cc1cc(SCC(=O)NCc2ccc(F)cc2)nc(=O)[nH]1
0%,COCCNC(=O)C(=O)NCC(c1ccc2c(c1)OCO2)N1CCOCC1 (stereo not drawn)
0%,COc1ccc(NCc2cc3cc4c(cc3n(CC(=O)Nc3ccc(C)cc3C)c2=O)OCO4)cc1
0%,COc1cccc(NC(=O)c2oc3ccccc3c2NC(=O)c2ccccc2C)c1
-1%,CCOc1ccc(NC(=O)C(C)n2c(=O)cc(-c3ccccc3)c3c(C)nn(C)c32)cc1 (stereo not drawn)
-53%,CC(=O)c1ccc(NC(=O)C(C)Sc2nnc(C3CCCCC3)o2)cc1 (stereo not drawn)

The listing continues:
miR-21 FLuc,Compound
-55%,COC(=O)c1ccc(Cn2nnc3sc4c(c3c2=O)CCC(C)C4)cc1 (stereo not drawn)
22%,CCCCN(CC)C(=O)CSc1c2c(nc3ccc(Cl)cc13)CCCC2
-4%,Cc1ccc(C(=O)CSc2nnc(-c3ccccc3)n2-c2ccccc2)cc1
0%,CCN(CC)C(=O)Cn1c(=O)n(-c2ccc(Cl)cc2)c(=O)c2c3c(sc21)CCCCC3
10%,Cc1ccc(C)c(CN2C(=O)c3ccccc3Sc3ccc(C(=O)NCc4ccco4)cc32)c1
26%,CCCCOc1ccc(CNC(=O)c2cc3n(n2)CCCN(Cc2ccc(C)cc2)C3=O)cc1
-52%,COc1ccc(-c2nc(C)c(CCNC(=O)c3cccc(C)c3)s2)cc1OC
3%,Cc1cccc(NC(=O)CN2C(=O)CSc3ccc(S(=O)(=O)N4CCCC4)cc32)c1C
1%,COCCn1c(SCC(=O)c2c(C)[nH]c3ccccc23)nc2cc(C(=O)NC(C)C)ccc2c1=O
-3%,COC(=O)c1sccc1S(=O)(=O)N1CCN(c2cc(Cl)ccc2C)CC1
-54%,CCC(Cc1ccccc1)NC(=O)c1ccc2nc(N3CCC(C)CC3)sc2c1 (stereo not drawn)
-8%,CCCOc1ccc(CNC(=O)c2oc3ccc4c(c3c2C)C(=O)CC(C)(CC)O4)cc1 (stereo not drawn)
7%,CCOc1ccc(NC(=O)CC2C(=O)N(c3ccc(C)cc3)C(=O)N2Cc2ccc(OC)cc2)cc1 (stereo not drawn)
1%,Cc1nn(C(=O)c2cccc(F)c2)c(C)c1S(=O)(=O)N1CCCCCC1
-6%,Cc1cn(C)c(CC(=O)NCc2ccc(F)cc2)c1C(=O)O

Later entries.
miR-21 FLuc,Compound
6%,CN(C)c1ccc(-c2noc(C3CC(=O)N(c4ccc5c(c4)OCCO5)C3)n2)cc1 (stereo not drawn)
4%,Cc1cc(C)c(S(=O)(=O)NCCc2sc3nc(-c4ccc(F)cc4)nn3c2C)c(C)c1
-1%,CCOCCCn1c(SCC(=O)Nc2ccc(OC)cc2OC)nc2ccccc2c1=O
9%,Cc1ccc(NC(=O)Nc2nnc(N(C)Cc3ccccc3)s2)cc1
0%,Cn1ncc2c(NCc3cccc(Cl)c3)ncnc21
12%,CCN1CCN(c2ncc3c(n2)CCN(Cc2ccc(Br)s2)C3)CC1
?,CSc1ccc(CCNC(=O)CN2C(=O)COc3ccc(S(=O)(=O)N4CCCC4)cc32)cc1
-2%,O=C1COc2cc(S(=O)(=O)CCC(=O)NC3CCCCC3)c(Cl)cc2N1
10%,CN(CC(=O)Nc1cccc(C#N)c1)S(=O)(=O)c1cc2c(cc1Cl)NC(=O)CO2
-5%,CCN(CC)CCCNC(=O)CCCn1ncn2c(cc3occc32)c1=O
-15%,CC(C)OCCCn1c(SCc2ccccc2Cl)nc2c(sc3ccccc32)c1=O
-1%,COc1ccc(CNC(=O)C2CCN(S(=O)(=O)c3ccc4c(ccn4C)c3)CC2)cc1
-9%,COCCCNC(=O)c1ccc(NC(=O)N2CCCCc3ccccc32)cc1
1%,O=C(CCn1c(=O)c2ccccc2n(CC(=O)Nc2ccc(F)cc2)c1=O)NCCc1ccccc1
21%,CCN(CCCNC(=O)c1ccc(Sc2ccc(Cl)cc2)c(NC(C)=O)c1)c1ccccc1

Next part
miR-21 FLuc,Compound
6%,Cc1ccc(C)c(Cn2c(SCC(=O)N(C)Cc3ccccc3)nc3ccccc32)c1
30%,COc1ccc(Nc2cc(C)c3cc(NC(=O)Cc4ccc(Cl)cc4)ccc3n2)cc1
0%,CCCN(CCC)CCCNC(=O)c1nn(C)c2c1CS(=O)(=O)c1ccccc1-2
-7%,CCOc1ccccc1N(CC)C(=O)c1noc2c1COc1ccc(C)cc1-2
27%,Cc1ccc(-n2nc(CO)c(C(=O)NC(C)c3ccccc3)n2)cc1C (stereo not drawn)
6%,Cc1c(CNC2CCCCC2)c(C(=O)O)c(C)n1Cc1ccccc1F
13%,Cc1ccc(C(=O)c2cn(Cc3cc(C)ccc3C)c3nc(C)ccc3c2=O)cc1
17%,Cc1cccc(C(C)C)c1NC(=O)C1CCCN1S(=O)(=O)c1cccc2nsnc12 (stereo not drawn)
5%,COc1ccccc1NC(=O)c1ccc2oc(=O)c(S(=O)(=O)c3ccccc3)cc2c1
26%,Cc1cccc(Cn2c(CN3CCC(C(=O)NCc4cccnc4)CC3)cc3ccccc32)c1
1%,CCOc1ccc(NC(=O)CSc2ccc(-c3sc(-c4ccccc4)nc3C)nn2)cc1
3%,Cc1nc2ccccc2c(=O)n1-c1ccc(NC(=O)c2ccccc2[N+](=O)[O-])cc1
-47%,Fc1ccc(Cc2cn3cc(-c4ccc(Cl)cc4)nc3s2)cc1
-18%,COc1ccc(Cl)cc1NC(=O)c1ncn(-c2ccccc2)n1
6%,CCc1nn(CC(=O)NCC(C)c2ccccc2)c(=O)c2cc3occc3n12 (stereo not drawn)

Further structures follow.
miR-21 FLuc,Compound
3%,O=C(CN1C(=O)CCc2cc(S(=O)(=O)N3CCCCC3)ccc21)NCc1ccc(Cl)cc1
-24%,CCSc1nnc2c(n1)OC(c1ccc(OCC(=O)O)cc1)Nc1ccccc1-2 (stereo not drawn)
-2%,CCN(CCCNC(=O)c1cc2cc3cc(OC)ccc3nc2s1)c1ccccc1
-75%,COc1cc(NC(=O)c2cc(-c3cccc(OC)c3)n[nH]2)cc(OC)c1
1%,COc1ccc(Br)c(C(=O)Nc2cc3c(cc2N2CCCCC2)n(C)c(=O)c(=O)n3C)c1
-25%,Cc1ccc(-c2cc(C(=O)NCc3cnn(C)c3C)c3ccccc3n2)cc1C
-1%,O=C(CSc1nc2c([nH]c3ccccc32)c(=O)n1-c1ccc(F)cc1)NCC1CCCO1 (stereo not drawn)
20%,Cn1nc(-c2ccccc2F)c2cc(C(=O)NCCc3ccc(Cl)cc3)sc21

Compounds from the list above that have a thiophene ring, fused or not, in the order listed:
miR-21 FLuc,Compound
-72%,COCc1cc(C)nc2sc(C(=O)Nc3ccccc3O)c(N)c12
7%,CCOc1ccc(CCNC(=O)CCCc2nnc3n(CC)c(=O)c4sccc4n23)cc1
2%,CCOC(=O)c1c(NC(=O)Cc2coc3cc(C)cc(C)c23)sc2c1CCC2
-8%,CCOc1ccc(-c2cccc(NS(=O)(=O)c3ccc(C)s3)c2)nn1
-1%,Cn1c(=O)c2sccc2n2c(CCCC(=O)Nc3ccc(Cl)cc3)nnc12
3%,CCc1ccc(-n2c(=O)c3c(C)c(C(=O)N(C)C)sc3n(Cc3ccccc3C#N)c2=O)cc1
-39%,CNC(=O)c1c(NC(=O)c2cc(=O)c3ccccc3o2)sc2c1CCC2
-7%,CCCN(CCC)CCNC(=O)c1sc2nc3n(c(=O)c2c1C)CCCCC3
-55%,COC(=O)c1ccc(Cn2nnc3sc4c(c3c2=O)CCC(C)C4)cc1 (stereo not drawn)
0%,CCN(CC)C(=O)Cn1c(=O)n(-c2ccc(Cl)cc2)c(=O)c2c3c(sc21)CCCCC3
-3%,COC(=O)c1sccc1S(=O)(=O)N1CCN(c2cc(Cl)ccc2C)CC1
12%,CCN1CCN(c2ncc3c(n2)CCN(Cc2ccc(Br)s2)C3)CC1
-15%,CC(C)OCCCn1c(SCc2ccccc2Cl)nc2c(sc3ccccc32)c1=O
-2%,CCN(CCCNC(=O)c1cc2cc3cc(OC)ccc3nc2s1)c1ccccc1
20%,Cn1nc(-c2ccccc2F)c2cc(C(=O)NCCc3ccc(Cl)cc3)sc21

This is a subset; rates above refer to the full screens.
